ClpP mod = qHTS Assay for Activators of ClpP | ATP-dependent Clp protease proteolytic subunit (Bacillus subtilis (strain 168)), P80244 | purified B. subtilis ClpP, FRET peptide cleavage, 20 min | Potency, µM (highest dose often 57.5 µM), inactives show top-dose activity change, negative = active | 340,000 compounds, 1.9% hits; active = well fitted falling curve with a large enough effect; inconclusive = small, poorly fitted or top-dose-only effect; inactive = no such curve, though single readings can be large or run the other way; also: potency is read from the fitted curve at half-maximal effect; the source files actives as falling curves though it sought activators and does not explain the sign; nearly all actives have a fitted effect of over 65% in size; many hits overshoot -100%
Target sequence (P80244 whole entry, looked up): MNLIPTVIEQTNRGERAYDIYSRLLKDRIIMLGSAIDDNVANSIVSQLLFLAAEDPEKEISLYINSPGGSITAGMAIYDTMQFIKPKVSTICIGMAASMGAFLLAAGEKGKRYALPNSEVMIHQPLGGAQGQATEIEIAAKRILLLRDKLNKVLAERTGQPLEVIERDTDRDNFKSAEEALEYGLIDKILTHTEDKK
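ClpP 10 microg/mL final, pH 8 Tris/KCl buffer with BSA, glycerol, Tween-20; compound pinned in; FRET-FV substrate; RT 20 min; Ex320/Em430; ΔFRET vs ADEP 5.8 microM, DMSO, no enzyme.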
TRPML1 inh = human mucolipin-1 channel inhibition. Q9GZU1. TRPML1-inducible cells, Ca2+ dye fluorescence, FDSS; active compounds read low; inhibition of EC80 agonist-evoked calcium signal. activity change, negative = inhibition, % (concentration not given with the values). 390,000 compounds, 0.02% hits. AID 624415; in the data active means activity change below about -50%; inconclusive means about -30% to -50%; inactive means above about -30%;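 also: stimulus is agonist 54-4 at its EC80 concentration; % is scaled to controls: 0 for no effect and ±100 for the full control effect; the text of the record puts the active cut at -80%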
Target sequence (Q9GZU1 whole entry, looked up): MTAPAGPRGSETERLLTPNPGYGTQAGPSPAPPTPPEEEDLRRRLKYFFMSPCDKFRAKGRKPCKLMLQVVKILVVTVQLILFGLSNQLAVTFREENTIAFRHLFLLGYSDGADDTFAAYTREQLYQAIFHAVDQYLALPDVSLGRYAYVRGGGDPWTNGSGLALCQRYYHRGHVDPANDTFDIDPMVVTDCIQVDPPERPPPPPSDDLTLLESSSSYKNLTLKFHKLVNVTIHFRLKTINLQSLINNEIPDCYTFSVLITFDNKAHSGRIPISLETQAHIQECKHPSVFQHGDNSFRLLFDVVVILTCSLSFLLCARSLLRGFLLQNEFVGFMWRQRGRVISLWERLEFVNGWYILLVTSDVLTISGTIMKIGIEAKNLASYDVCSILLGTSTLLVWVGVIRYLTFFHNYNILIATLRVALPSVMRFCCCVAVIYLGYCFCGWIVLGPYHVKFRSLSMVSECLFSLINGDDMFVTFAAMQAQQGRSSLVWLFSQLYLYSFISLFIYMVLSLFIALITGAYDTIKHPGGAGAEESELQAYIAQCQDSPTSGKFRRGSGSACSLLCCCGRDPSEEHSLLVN
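Tet-induced TRPML1-DL cells loaded with Ca8 no-wash calcium dye were read kinetically on FDSS. Compound addition was followed by EC80 agonist 54-4 (4 uM final); inhibition was read over 110 s.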
Numbers without * were called inactive; ? = inconclusive.

Value order – ClpP mod, TRPML1 inh
CC(=O)Nc1nonc1-c1nnc(SCC(=O)Nc2cc(Cl)ccc2C)n1C
  2.2%, -6
CCCC12CN3CC(CCC)(CN(C1)C3c1ccc(OC(C)C)cc1)C2=O (stereo not drawn)
  -0.5%, 42
COC(=O)c1ccc2nc(-c3ccc(C)cc3)c(Cc3ccccc3OC)n2c1
  -7.7%, -8
Cc1ccc(N2CCN(C(=O)c3cccn4c(=O)c5ccc(Cl)cc5nc34)CC2C)cc1 (stereo not drawn)
  -6.0%, 25
O=C(O)c1cccc(NC(=O)c2cccc(S(=O)(=O)Nc3cccc(F)c3)c2)c1
  -0.7%, -5
Cc1cccc(OCCCC(=O)Nc2sc3c(c2C(N)=O)CCC(C)C3)c1 (stereo not drawn)
  -9.4%, -16
Cc1ccccc1CSc1nc(-c2ccccc2)nc2c1Cc1c(CO)cnc(C)c1O2
  0.4%, -13
O=C(CCSCCc1ccccn1)Nc1ccc(Cl)cc1
  0.0%, -5
CCc1ccc(CNC(=O)CCc2c(C)nn(-c3ccc(N4CCCC4)nn3)c2C)cc1
  -1.2%, -11
COc1ccccc1Nc1nn2c(=O)c3ccc(C(=O)NC4CCC(C)CC4)cc3nc2s1 (stereo not drawn)
  1.6%, -13
CCc1ccccc1NC(=O)Cn1c(=O)n(Cc2ccco2)c(=O)c2ccccc21
  -13%, -8
Cc1ccc(OCC(=O)Nc2ccc3nc(SCC(=O)N4CCOCC4)sc3c2)cc1C
  -2.0%, 2
CCS(=O)(=O)c1ccccc1C(=O)N1CCN(c2nc3ccccc3s2)CC1
  -9.5%, -8
CCc1ccc(N2C(=O)CS(=O)(=O)C23C(=O)N(Cc2ccccc2F)c2ccccc23)cc1 (stereo not drawn)
  0.9%, -11
CC1=C(C(=O)Nc2ccccc2)C(c2ccccc2Cl)n2ncc(C(=O)Nc3cccc(C)c3)c2N1 (stereo not drawn)
  ?, 21

By substructure: those above with sulfur.
Value order – ClpP mod, TRPML1 inh
CC(=O)Nc1nonc1-c1nnc(SCC(=O)Nc2cc(Cl)ccc2C)n1C
  2.2%, -6
O=C(O)c1cccc(NC(=O)c2cccc(S(=O)(=O)Nc3cccc(F)c3)c2)c1
  -0.7%, -5
Cc1cccc(OCCCC(=O)Nc2sc3c(c2C(N)=O)CCC(C)C3)c1 (stereo not drawn)
  -9.4%, -16
Cc1ccccc1CSc1nc(-c2ccccc2)nc2c1Cc1c(CO)cnc(C)c1O2
  0.4%, -13
O=C(CCSCCc1ccccn1)Nc1ccc(Cl)cc1
  0.0%, -5
COc1ccccc1Nc1nn2c(=O)c3ccc(C(=O)NC4CCC(C)CC4)cc3nc2s1 (stereo not drawn)
  1.6%, -13
Cc1ccc(OCC(=O)Nc2ccc3nc(SCC(=O)N4CCOCC4)sc3c2)cc1C
  -2.0%, 2
CCS(=O)(=O)c1ccccc1C(=O)N1CCN(c2nc3ccccc3s2)CC1
  -9.5%, -8
CCc1ccc(N2C(=O)CS(=O)(=O)C23C(=O)N(Cc2ccccc2F)c2ccccc23)cc1 (stereo not drawn)
  0.9%, -11

Full records, looked up by structure. Values in the order: ClpP mod | TRPML1 inh
Listed for O=C(O)c1cccc(NC(=O)c2cccc(S(=O)(=O)Nc3cccc(F)c3)c2)c1 : -0.7% | -5
Listed for CCc1ccccc1NC(=O)Cn1c(=O)n(Cc2ccco2)c(=O)c2ccccc21 : -13% | -8

Further entries follow.
Value order – ClpP mod, TRPML1 inh
Cc1ccc(CNC(=O)c2c(O)nc3ccccn3c2=O)cc1
  -2.7%, 0
CCCNC(=O)C1CCC(Cn2c(=O)c3sccc3n(CC(=O)N(CC)CC)c2=O)CC1 (stereo not drawn)
  1.8%, 22
CCOC(=O)c1cc2c(=O)n3ccccc3nc2n(CC2CCCO2)c1=NC(=O)c1ccc(C)cc1 (stereo not drawn)
  4.1%, 7
CCOc1ccc(NC(=O)CN2C(=O)c3ccccc3Sc3ccc(C(=O)OC)cc32)cc1
  0.8%, 6
COc1ccccc1CNC(=O)C(=O)NCC(c1cccs1)S(=O)(=O)c1ccc(F)cc1 (stereo not drawn)
  1.0%, 7
CCOC(=O)C1CCCN(C(=O)c2cc(F)cc(F)c2)CC1 (stereo not drawn)
  -0.4%, 3
COc1ccc(Cl)cc1NC(=O)c1cc(S(=O)(=O)NC2CCCCCC2)ccc1F
  ?, -3
Cc1oc(-c2ccccc2Cl)nc1CS(=O)CC(=O)N1CCN(c2cccc(C(F)(F)F)c2)CC1 (stereo not drawn)
  1.4%, -18
CCOc1ccc(CCN2C(=S)N([C@@H](CC(C)C)CN3CCC[C@@H]3CN3C(=S)NC[C@@H]3CC(C)C)C[C@@H]2CC(C)C)cc1
  -0.8%, -2
COc1cc(NC(=O)Cn2ncc3c(=O)oc4ccccc4c32)cc(OC)c1OC
  -1.7%, 37
COC(=O)c1c(NC(=O)COc2ccccc2Cl)sc2c1CCC(C(C)(C)C)C2 (stereo not drawn)
  1.6%, -12
CCOc1ccc(NC(=O)Cn2c(=O)n(CCCC(=O)NCc3ccc4c(c3)OCO4)c(=O)c3ccccc32)cc1
  -3.0%, -3
CCOC(=O)c1c(-c2ccccc2)oc2ccc(NS(=O)(=O)c3ccc(C(C)C)cc3)cc12
  3.7%, 8
CCCN1CCN(CCCNC(=O)c2cc3c(=O)n(CC)c4ccccc4c3s2)CC1
  3.6%, -15
CCn1c(=O)c2sccc2n2c(CCCC(=O)N3CCN(c4cccc(Cl)c4)CC3)nnc12
  -0.2%, 1
COc1cc(CN(C(=O)COc2ccc(C)cc2)c2ccccn2)cc(OC)c1OC
  0.6%, 10
CN(C)S(=O)(=O)c1ccc2c(c1)N(CC(=O)NCc1ccc(F)cc1)C(=O)CS2
  1.2%, 48
Cc1cccc(NC(=O)Cn2c(C(F)(F)F)nc3ccccc32)c1C
  -3.0%, -12
CCc1ccccc1NC(=O)c1cc(S(=O)(=O)N2CCCC2)cn1C
  1.9%, 6
Cc1ccc(S(=O)(=O)N2CCC(N3CCN(Cc4ccccc4)C(=O)C3=O)CC2)cc1C
  -2.3%, -7
COc1ccc(Cn2c(C(=O)O)c(CNCc3ccc(SC)cc3)c3ccc(OC)cc32)cc1
  ?, 24
CCN(c1ncnc2c1c(-c1ccccc1)cn2-c1ccccc1)C1CCCCC1
  -2.0%, 2
COc1ccc(-c2ccc(NS(=O)(=O)c3cccc(C)c3)cc2)nn1
  1.8%, -17
COC(=O)c1cc2oc(C)cc2n1Cc1ccccc1Cl
  -14%, 6
Cc1ccccc1-c1nc(CS(=O)(=O)CC(=O)NCc2cccc(Cl)c2)c(C)o1
  1.9%, -10
COc1ccc(CCNC(=O)c2ccc3c(c2)N(Cc2ccccc2F)C(=O)c2ccccc2S3=O)cc1OC (stereo not drawn)
  -5.6%, -10
COc1ccc(OC)c(CCNC(=O)c2cc3c(=O)n(C)c4ccccc4c3n2C)c1
  -19%, ?
COc1ccc(NC(=O)c2sc3nc4n(c(=O)c3c2C)CCC4)c(OC)c1
  -2.3%, 19
CCN(CCCNC(=O)Cn1ncc2c3ccccc3n(C)c2c1=O)c1cccc(C)c1
  -7.8%, -7
Cc1oc(-c2ccccc2F)nc1CSCC(=O)N1CCN(c2ccccc2)CC1
  -1.0%, -13
COc1ccc(C)cc1NC(=O)Cn1cc(S(=O)(=O)N2CCC(C)CC2)c2ccccc2c1=O
  -13%, 32
Cc1cc(=O)n2nc(N3CCC(C(=O)Nc4c(C)cccc4C)CC3)sc2n1
  0.3%, -21
CCOC(=O)c1c(C)[nH]c(C)c1S(=O)(=O)N1CCC(C(=O)N2CCN(c3ccc(F)cc3)CC2)CC1
  -0.7%, -6
CC(C)C(=O)Nc1cccc(NC2=NS(=O)(=O)c3ccccc32)c1
  20%, -12
Nc1cc(=O)nc(SCC(=O)Nc2cccc(Cl)c2)n1CCc1ccccc1
  1.4%, -12
COCc1nc2ccccc2n1Cc1ccc(C(C)(C)C)cc1
  0.8%, 5
COc1ccc(Cl)cc1NC(=O)c1c(NCc2cccs2)sc2c1CCC(C)C2 (stereo not drawn)
  -1.5%, -5
Cc1nc(N2CCCC2)c2c(C(=O)Nc3cccc(C)c3C)c(C)oc2n1
  2.3%, 6
CCOC(=O)c1ccccc1NC(=O)c1sc2nc(-c3ccc(F)cc3)cn2c1C
  -3.0%, -1
Cc1cccc(Cc2c(C)nc3nc(SCC(=O)NCc4ccc(F)cc4)nn3c2C)c1
  -5.1%, -3
CCc1cccc(NC(=O)c2cnc(N3CCOCC3)c3ccccc23)c1
  -27%, 59
CCOc1ccc(C(=O)Nc2cccc(C(=O)OCc3cc(=O)n4nc(C5CC5)sc4n3)c2)cc1
  26%, 8
N#Cc1cccc(NC(=O)C2CCN(c3nc(-c4ccc(Cl)cc4)no3)CC2)c1
  2.2%, -6
CCCCn1cc(S(=O)(=O)c2cc(C)ccc2C)c(=O)c2cc(F)c(F)cc21
  1.5%, -11
CCCN(CCC)CCNC(=O)c1cc(Sc2ccc(Cl)cc2)nc2ccccc12
  0.2%, -13
Cc1ccc(-n2c(=O)c3c4c(sc3n(Cc3cccc(Cl)c3)c2=O)CCC4)cc1C
  -3.2%, 14
CCOc1ccc(NC(=O)CSc2oc(-c3cccs3)nc2S(=O)(=O)c2ccc(Cl)cc2)cc1
  -4.1%, -7
Cc1cc(C)cc(-n2c(SCC(=O)NCc3ccc(F)cc3)nc3c([nH]c4ccccc43)c2=O)c1
  -11%, 14
CCCCNc1oc(-c2ccc(COc3ccc(OC)cc3)o2)nc1C#N
  28µM*, -1
COc1ccc(CCNC(=O)c2oc(=O)c3ccccc3c2-c2ccccc2)cc1OC
  0.5%, -5
CCN(C(=O)CN1C(=O)COc2ccc(S(=O)(=O)N3CCOCC3)cc21)c1cccc(C)c1
  -0.3%, -6
CCOc1ccccc1NC(=O)c1cc2c(=O)[nH]c3ccccc3c2s1
  -12%, 2
CC(=O)c1ccc(NC(=O)C2CCCN(S(=O)(=O)c3ccc(Br)s3)C2)cc1 (stereo not drawn)
  1.6%, 34
COc1ccc(Cl)cc1NC(=O)Cn1nnc2sc(-c3ccccc3)cc2c1=O
  -4.1%, -22
CCN(C(=O)CSc1nc2ccccc2n1Cc1ccc(C(=O)OC)cc1)c1ccccc1
  1.1%, 40
Cc1ccc(-n2c(=O)c3c4c(sc3n(Cc3ccccc3F)c2=O)CCC4)cc1C
  -0.6%, -22
Cc1ccc2ncc(C(=O)NCc3ccccc3Cl)c(=O)n2c1
  4.1%, 16
COc1ccc(C(=O)c2oc3ccccc3c2NC(=O)c2cc(=O)c3ccc(C)cc3o2)cc1Cl
  1.7%, -4
Cc1ccccc1-c1nc(CS(=O)(=O)CC(=O)Nc2cccc(C(F)(F)F)c2)c(C)o1
  -3.5%, -16
CCOC(=O)c1c(NC(=O)c2ccc(S(=O)(=O)N3CCCC(C)C3)cc2)sc2c1CC(C)(C)NC2(C)C (stereo not drawn)
  149%, -16

(list continues)
Value order – ClpP mod, TRPML1 inh
COc1cc2oc(=O)c(CC(=O)N3CCCCC3)c(C)c2cc1Cl
  3.6%, -19
O=C(CCNS(=O)(=O)c1ccc2c(c1)CCN2C(=O)C1CC1)N1CCN(c2cccc(Cl)c2)CC1
  -2.9%, 31
COc1ccc2c(c1)c1c(c(=O)n(-c3ccccc3C)c(=O)n1CC(=O)N1CCCC1)n2C
  3.8%, 7
Cc1ccc(NC(=O)Nc2ccccc2OCc2cc(=O)n3ccccc3n2)c(Cl)c1
  -13%, -19
COc1ccc2nc(N(Cc3cccnc3)C(=O)COc3ccccc3)sc2c1
  -5.4%, -2
CCOC(=O)N1CCc2c(sc3c2c(=O)n(CCc2ccccc2)c(=O)n3CC(=O)Nc2ccc(C)cc2)C1
  1.9%, -1
O=C(COc1ccc(F)cc1)Nc1ccc2nc(SCC(=O)N3CCCC3)sc2c1
  -2.6%, -3
COc1ccc2ncc3c(-c4ccc(C)c(C)c4)nn(CC(=O)NC4CCCC4)c3c2c1
  -14%, 6
COCCNC(=O)C1(C)CCCN(C(=O)c2cccc(C(F)(F)F)c2)C1 (stereo not drawn)
  1.0%, 4
CCc1ccc2oc(-c3ccc(NC(=O)c4cccc(Cl)c4Cl)cc3)nc2c1
  4.1%, -10
Cc1ccc(Cl)cc1NC(=O)Cn1nc2c(cc1=O)CC(C)CC2 (stereo not drawn)
  2.6%, -9
Cc1ccc(NS(=O)(=O)c2ccc3c(c2)N(C)C(=O)CC(=O)N3C)cc1Cl
  -3.9%, -9
CCOc1ccccc1NC(=O)c1ccc(F)c(S(=O)(=O)N2CCN(c3ccc(F)cc3)CC2)c1
  -3.1%, 6
CCCNC(=O)c1ccc(-c2nc(CS(=O)(=O)c3ccc(C)cc3)c(C)o2)cc1
  4.0%, 4
COc1ccccc1CNC(=O)CCS(=O)(=O)c1ccc2c(c1)oc(=O)n2C
  -0.9%, -27
Cc1ccc(Cl)cc1-n1ncc2c(NC3CCCCC3)ncnc21
  -1.7%, 1
Cc1ccc(C2CC(=O)Nc3cc4c(cc32)OCCO4)cc1 (stereo not drawn)
  1.6%, -6
COc1ccc(C)cc1NC(=O)c1nnn(CC(=O)Nc2c(C)cccc2C)c1N
  -10%, 10

Compound activity: PubChem, National Center for Advancing Translational Sciences (NCATS)

Some of the compounds tested; rates above refer to the full screens.
